Mtb bLac sens = beta-lactam sensitization of Mtb H37Rv | M. tuberculosis H37Rv growth with meropenem, percent inhibition; hits of this screen are not shown here | inhibition, % at 25 µM | actives 0.27% (n = 330,000);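 active means about 74% or more and at least 40 points above the plate without the antibiotic, then above 30% in a dose series; inconclusive means first-round hits that could not be retested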;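 further: growth measured after seven days incubation then overnight dye step; 0% = bacteria only wells and 100% = bacteria with antibiotic; twin plates without the antibiotic show which effects depend on it; some results filed as inactive read as strong as hits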
YopH inh = blocks Yersinia enterocolitica YopH tyrosine phosphatase. fluorescence Ex485/Em525. inhibition, %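 (about 10 µM by stock and volumes)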. actives 0.16% (n = 140,000). AID 898;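 active means inhibition of 50% or more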;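 further: controls were vehicle for no effect and minimum signal wells for full effect; inactives centre near -20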
Mtb H37Rv = M. tuberculosis H37Rv growth inhibitors, H37Rv strain (AID 1626); M. tuberculosis H37Rv growth inhibition; higher % means a stronger effect; inhibition, % at 10 µM; hits with a dose series show IC50 in µM; actives 0.95% (n = 220,000);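 active means confirmed in a dose series; inconclusive means inhibition above 80% but not taken into the dose series; inactive means below 80% or under 30% at every dose of the series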;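 further: bacteria incubated seven days before Alamar blue readout; 0% = bacteria only wells and 100% = bacteria with antibiotic wells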
Arbovirus inh = blocks arbovirus infection; actives 0.37% (n = 200,000); inhibition, % at 10 µM; arbovirus infection cell-based antiviral screen; AID 1251;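 active means inhibition from about 30%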;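 further: bluetongue infection of BSR cells; cell survival read as ATP light after 72 h; 0% = infected wells without compound and 100% = uninfected wells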
RecA intein inh = blocks M. tuberculosis RecA intein splicing. inhibition, %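 (about 9 µM by stock and volumes)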. cell-free RecA intein splicing, fluorescence. AID 2221. actives 0.75% (n = 290,000). P9WHJ3; in the data active means inhibition above about 30%; inconclusive means no clear call, values can overlap the other calls;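 further: 0% = vehicle wells and 100% = reference inhibitor control wells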
Target sequence (P9WHJ3 whole entry, looked up): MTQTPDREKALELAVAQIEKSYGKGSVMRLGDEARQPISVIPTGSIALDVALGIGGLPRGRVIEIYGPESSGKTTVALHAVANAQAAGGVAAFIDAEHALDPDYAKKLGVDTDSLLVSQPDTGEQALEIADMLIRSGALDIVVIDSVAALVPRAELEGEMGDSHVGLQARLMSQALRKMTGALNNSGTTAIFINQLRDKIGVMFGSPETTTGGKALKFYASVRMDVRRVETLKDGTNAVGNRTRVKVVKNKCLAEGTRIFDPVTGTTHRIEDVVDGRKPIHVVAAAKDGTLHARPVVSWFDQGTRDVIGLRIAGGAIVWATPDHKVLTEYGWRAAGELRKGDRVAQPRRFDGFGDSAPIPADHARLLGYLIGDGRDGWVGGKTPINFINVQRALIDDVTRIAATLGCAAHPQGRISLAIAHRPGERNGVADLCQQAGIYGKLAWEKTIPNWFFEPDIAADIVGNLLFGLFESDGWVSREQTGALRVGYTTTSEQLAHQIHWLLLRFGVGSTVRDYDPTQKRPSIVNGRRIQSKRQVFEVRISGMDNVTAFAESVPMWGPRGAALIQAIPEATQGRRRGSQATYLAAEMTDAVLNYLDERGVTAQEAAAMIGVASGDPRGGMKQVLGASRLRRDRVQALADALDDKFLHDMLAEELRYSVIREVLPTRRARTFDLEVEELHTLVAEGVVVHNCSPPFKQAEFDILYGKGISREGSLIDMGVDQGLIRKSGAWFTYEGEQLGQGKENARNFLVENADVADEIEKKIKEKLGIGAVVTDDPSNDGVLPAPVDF
Arbovirus inh repeat = second read-out of Arbovirus inh, no call of its own (marks repeat the call); inhibition, %; measured here: 10K subset replicate screen; many hits read low in the repeat;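 first of two repeat runs on a subset; 0% = infected and 100% = uninfected wells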
Numbers without * were called inactive; u = inconclusive; x = not tested or not shown. The list is partial; rates above refer to the full screens.

SMILES	Mtb bLac sens	YopH inh	Mtb H37Rv	Arbovirus inh	RecA intein inh	others
N#Cc1nc(-c2ccco2)oc1N1CCC(Cc2ccccc2)CC1	0	-26	-11%	4	8.3
CCOP(=O)(OCC)C(C)(C)NC(=O)c1cc([N+](=O)[O-])cc([N+](=O)[O-])c1	2	-22	-7%	7	-0.9
CCC(=O)OCC(=O)N=c1sccn1Cc1ccccc1Cl	14	x	x	x	2.2
CCCOC(=O)C1=C(C)N(C)C(=O)NC1c1cc2c(cc1[N+](=O)[O-])OCO2 (stereo not drawn)	-9	x	-5%	-4	-11
CC(C)(C)c1ccc(-c2cc(N)n[nH]2)cc1	7	-45	6%	-9	1.9	Arbovirus inh repeat=0
CCOc1ccc(C2/C(=C(/O)c3ccc(OC)cc3)C(=O)C(=O)N2c2cc(C)on2)cc1OC (stereo not drawn)	-8	-11	0%	18	0.8
Fc1ccc(C2CC(c3ccccc3)n3ncnc3N2)cc1 (stereo not drawn)	4	-6	-4%	8	5.2
CC(C)CCNC(=O)CCC(=O)NNc1nc2ccccc2c2nc(-c3ccccc3)nn12	4	-13	-2%	-10	-0.7
Clc1ccc(OCc2nnc(SCc3nc4ccccc4[nH]3)n2Cc2ccco2)cc1	-2	-55	-1%	-4	7.1
C/C(=N\NC(=O)c1ccccc1)c1nc2ccccc2n1C	85	-39	u	41*	-1.0
O=C(Nc1cc(C(F)(F)F)ccc1N1CCCC1)C1=COCCO1	-6	x	x	x	0.8
CCC(C(=O)NCCc1ccc(C)cc1)n1nc(C)c2c(C)n(-c3ccccc3)nc2c1=O (stereo not drawn)	-9	x	x	x	3.9
O=C(c1ccccc1F)N1CCC2(CC1)OCCO2	-4	x	x	x	-3.5
COc1cccc(C2=NN(C(=O)c3ccccc3)C(O)(C(F)(F)F)C2)c1 (stereo not drawn)	14	-4	x	-5	0.7
O=S(=O)(Nc1ccc(S(=O)(=O)Nc2nccs2)cc1)c1ccc2c(c1)OCCO2	97	2	56%	6	6.6
O=C(CN1CCC(N2CCCCC2)CC1)N1CCCc2ccccc21	-5	-22	-15%	2	-3.7
Brc1ccccc1C1CC(c2ccccc2)=Nc2ccccc2N1 (stereo not drawn)	9	-22	4%	9	13
Oc1ccc(CCNc2ncnc3ccc(Cl)cc23)cc1	-5	x	x	x	4.4
Cc1cccc(NC(=S)NC(=O)c2oc3ccccc3c2C)n1	-1	x	x	x	2.5
COc1ccc(NC(=O)Nc2ccccc2F)cc1	-1	-6	4%	-3	1.2
O=C(COC(=O)CCc1ccc(S(=O)(=O)N2CCOCC2)cc1)Nc1ccc(Cl)cn1	-8	-45	-3%	9	2.9
COc1ccc2c(c1)O[C@@H](c1cccc(C(F)(F)F)c1)[C@H](OC(=O)N[C@H]1CCCc3ccccc31)C2=O	-1	-32	22%	19	-1.9
CCn1cc(C(=O)NCc2ccco2)c(=O)c2cc(F)c(N3CCN(C(=O)c4ccco4)CC3)cc21	100	-31	71%	-3	1.2
Cn1c(SCC(=O)NC(=O)NCc2ccco2)nnc1-c1ccccc1	22	-35	1%	0	5.0

Molecules shown so far containing an NH in an aromatic ring, in the order listed:
SMILES	Mtb bLac sens	YopH inh	Mtb H37Rv	Arbovirus inh	RecA intein inh	others
CC(C)(C)c1ccc(-c2cc(N)n[nH]2)cc1	7	-45	6%	-9	1.9	Arbovirus inh repeat=0
Clc1ccc(OCc2nnc(SCc3nc4ccccc4[nH]3)n2Cc2ccco2)cc1	-2	-55	-1%	-4	7.1

(more compounds)
SMILES	Mtb bLac sens	YopH inh	Mtb H37Rv	Arbovirus inh	RecA intein inh	others
Cc1ccc(-n2c(CSc3nc(C)cc(C)n3)nnc2SCC(=O)Nc2nccs2)cc1	-1	x	4%	x	-2.3
Cc1cc(NC(=O)C2CC(c3ccccc3Cl)=NO2)no1 (stereo not drawn)	1	-25	-12%	6	0.7
CC(C)Cc1cc(CNC(=O)C2CCC(=O)N(Cc3cccc(C(F)(F)F)c3)C2)on1 (stereo not drawn)	-6	x	x	x	-2.6
CCc1noc(C)c1C(=O)Nc1nnc(C2CCCCC2)s1	28	x	-7%	2	2.3
Cc1ccc(C)c(N2CCN(C(=O)c3cc4sccc4n3C)CC2)c1	73	-2	6%	-22	19
Cc1cc2ncn(C(=O)c3ccc4c(c3)OCO4)c2cc1C	5	-5	8%	-4	7.6
Cn1c(=O)c2c(O)cc(=O)n(-c3ccccc3)c2n(C)c1=O	6	-12	x	11	x
CCCNC(=O)COc1coc(CN2CCN(c3cccc(Cl)c3)CC2)cc1=O	3	x	x	x	-1.5
O=C(c1cc2ccccc2o1)N1CCCC1	0	x	-8%	-2	2.2
O=c1c2ccccc2[nH]c(=S)n1CCN1CCC(=C(c2ccc(F)cc2)c2ccc(F)cc2)CC1	x	-33	27%	-26	18
C=CCn1c(CCc2ccccc2)nnc1SCC(N)=O	-6	x	x	x	-1.6
Cc1ccc(C)c(N(C(=O)c2snc(C(N)=O)c2N)C(C(=O)NCC2CCCO2)c2cccs2)c1 (stereo not drawn)	-7	x	7%	-8	-13
O=C(NC1CC2CCCC(C1)N2C(=O)Nc1ccc(F)cc1)c1ccccc1 (stereo not drawn)	5	x	x	x	-0.8
CC1(C)CC(=O)C=C(C(=O)N2CCCC(C(=O)c3cccc(C(F)(F)F)c3)C2)O1 (stereo not drawn)	-4	x	x	x	3.0
COC(=O)c1sc(NC(=O)CSc2nc3cccnc3n2C2CCCCC2)nc1C	-3	-11	15%	9	2.3
COc1cccc(CN2CC(C(=O)N(C)Cc3[nH]c4ccccc4c3C)CCC2=O)c1 (stereo not drawn)	7	x	x	x	-2.7
CN1CCN(C(=O)CCn2nc(-c3ccccc3)c3ccccc3c2=O)CC1	0	-8	1%	15	0.2
CCN1C(=O)N[C@@H](c2ccco2)C(C(=O)OC)=C1C	-12	x	7%	x	3.0
CC(NC(=O)COC(=O)c1cc(=O)[nH]c2ccccc12)c1ccccc1 (stereo not drawn)	3	x	1%	-2	0.4
Cc1ccc2c(c1)N(C(=O)CCC(=O)NCCCN1CC(C)CC(C)C1)CCO2 (stereo not drawn)	4	x	x	x	-1.6
Cc1ccc2c(CSc3nc4ccccc4c(=O)n3CCCO)cc(=O)oc2c1C	69	9	68%	-22	4.1
Brc1ccc(-c2cn3ccccc3n2)s1	22	-2	0%	-4	3.4
CC1=NN(C(C#N)c2ccccc2C)C(c2ccccc2)C1 (stereo not drawn)	-2	x	x	x	3.5
COc1ccc(NC(=O)COC(=O)c2ccc(O)cc2)c([N+](=O)[O-])c1	6	x	-13%	1	0.8
Cc1occc1-c1nnc(SCC(=O)NC2CCCC2)n1-c1ccccc1	-17	-31	2%	-9	5.9
CC(C)(C)C1CCC2(CC1)C(C#N)=C(SCC(=O)NC1CCCCC1)NC(=O)C2C#N (stereo not drawn)	19	-26	3%	-29	2.6
Cc1ccc(C)c(S(=O)(=O)N2CCN(CC(=O)Nc3cc(C)on3)CC2)c1	3	-27	-1%	-3	0.1
CC(C(=O)Nc1sc2c(c1C(=O)NCC1CCCO1)CCC2)N1C(=O)c2ccccc2C1=O (stereo not drawn)	6	-3	-1%	0	1.2
Cc1ccc(NC(N)=S)cc1	2	-21	-4%	6	1.6
COc1ccc(/C=C(\C#N)C(=O)OCC(=O)N2CC(C)OC(C)C2)cc1 (stereo not drawn)	3	x	-5%	5	-1.5
Cc1nc(NC(=O)C23CCC(C)(C(=O)O2)C3(C)C)sc1C (stereo not drawn)	2	6	2%	-6	0.7
COc1ccc(OC)c(/C=N/NC(=S)NCCc2ccccc2)c1	13	x	x	x	16
CCOC(=O)COc1ccc(/C=C2/C(=O)NN(c3ccc(F)cc3)C2=O)cc1OC	55	x	x	x	-3.8
Cn1c(SCC(=O)Nc2ccc(F)cc2F)nnc1-c1cccnc1	2	-37	2%	3	-0.1	Arbovirus inh repeat=3
CC(=O)Cc1nsc(NC(=O)c2ccccc2Cl)n1	3	x	1%	8	-0.6
O=C(OCc1ccc([N+](=O)[O-])cc1Cl)c1cnccn1	17	x	x	x	0.5
COc1ccc(NC(=O)C2C3CCC(O3)C2C(=O)O)cc1OC (stereo not drawn)	-4	x	x	x	-0.8
O=C(NC1CN2CCC1CC2)c1cc(Cl)c([N+](=O)[O-])c2nc[nH]c12 (stereo not drawn)	3	-38	3%	-32	6.2
O=C(O)CN1C(=O)/C(=C\c2cn(-c3ccccc3)nc2-c2ccccc2)SC1=S	-4	x	x	x	7.2
Cn1c(=O)c(Cc2ccccc2)c(O)c2ccccc21	2	-4	1%	5	-0.5
N#Cc1sc2nc(-c3ccccc3)cc(C(F)(F)F)c2c1N	x	x	6%	5	-4.3
CC(=O)c1c(COC(=O)c2ccccc2Cl)nc2ccccc2[n+]1[O-]	-6	x	-9%	x	1.1
COc1ccc(-n2c(SCC(=O)N3CCOCC3)nc(O)c(Cc3ccccc3)c2=O)cc1	16	-9	11%	7	-6.1
Nc1nonc1C(=O)NCCNCc1ccccc1OCc1ccc(F)cc1	-10	-9	-3%	15	1.1
COc1cccc(-c2cc(C(F)(F)F)nc(N3CCC(C)CC3)n2)c1	6	-6	-4%	-10	14
O=C(Nc1ccccc1)/C(=C\c1cccs1)NC(=O)c1ccccc1	4	-26	4%	-13	-1.7
C=CCN1C(=NC(=O)COc2ccc(Cl)cc2)SC2CS(=O)(=O)CC21 (stereo not drawn)	1	x	x	x	-2.3
CCc1ccc(CNC(=O)CCC(=O)N2Cc3cccc(OC)c3Oc3ncccc32)cc1	2	x	x	x	-2.0
COc1ccc(-c2noc(N3CCC(C(=O)NCCCN4CCC(C)CC4)CC3)n2)cc1	-10	x	x	x	-2.5
Cc1ccc(C)c(NC(=S)NCc2ccccc2)c1	-10	x	x	x	1.2
CCN1CCOC(CC(=O)Nc2ccc([N+](=O)[O-])cc2)C1=O (stereo not drawn)	0	x	-2%	x	0.8
CCOc1cc(/C=C2\SC(=S)N(N3CCOCC3)C2=O)ccc1O	-1	x	-7%	x	-6.2
CCOC(=O)c1c(S(=O)(=O)NCc2ccc(C)o2)c(C)n(C)c1C	-3	x	x	x	-3.6
Cc1ccc(NC(=O)CCN2C(=O)c3cccc4cccc(c34)C2=O)cc1	-8	x	-3%	-3	2.3
Cc1ccc(S(=O)(=O)N2CCC(C(=O)OCC(=O)N(C)C3CCCCC3)CC2)cc1C	-7	x	x	x	2.5
CN(C)S(=O)(=O)c1ccc(S(=O)(=O)N2CCN(CCC#N)CC2)cc1	4	-20	-3%	9	-5.1	Arbovirus inh repeat=6
Clc1ccc(/C=C/c2nc3ccccc3[nH]2)cc1	18	-32	-1%	-25	5.6
CC1CC(C)CN(c2ccc(-n3cnnn3)cc2[N+](=O)[O-])C1 (stereo not drawn)	19	-26	5%	-6	-2.9
c1ccc2c(c1)CCN(C1CCCCC1)C2	-6	x	x	x	-1.1
CCOC(=O)C1(c2ccccc2)NC(c2ccccc2C)C2C(=O)N(c3ccc4c(c3)OCO4)C(=O)C21 (stereo not drawn)	10	-26	3%	-1	-2.6

Later entries.
SMILES	Mtb bLac sens	YopH inh	Mtb H37Rv	Arbovirus inh	RecA intein inh	others
CCOC(=O)N1CCN(/C=C(\C#N)c2nc3ccccc3s2)CC1	-15	-33	-11%	5	1.0
CC(C)NC(=O)CN1CCC(c2nc3ccccc3[nH]2)CC1	-6	x	x	x	-2.7
COc1cc(CNCc2ccccn2)ccc1OCc1ccccc1Cl	67	-16	61%	7	-2.1
O=C(COC(=O)/C=C/c1cccc(Br)c1)NCCC1=CCCCC1	45	-27	8%	1	-1.9
COc1ccc(-n2nc(C(=O)NCC(=O)NCc3ccco3)c3ccccc3c2=O)c(OC)c1	5	-20	-9%	3	-0.8
CCOc1ccc(NC(=O)/C=C/c2ccc(OC)cc2)c([N+](=O)[O-])c1	2	-7	-1%	-1	-1.1
O=S(=O)(NCCC1=CCCCC1)c1ccc(OC(F)(F)F)cc1	-2	x	x	x	-2.9
O=S(=O)(N1CCCCC1)N1CCN(CC(O)COc2ccc3cc(Br)ccc3c2)CC1 (stereo not drawn)	7	-15	12%	22	-0.3
Cc1ccc(C(=O)Oc2cc(N)n(S(=O)(=O)c3ccc(C)cc3)n2)cc1	-5	x	3%	-1	2.2

Part of the list above in order of length of the SMILES, largest number first:
SMILES	Mtb bLac sens	YopH inh	Mtb H37Rv	Arbovirus inh	RecA intein inh	others
COc1ccc(-n2nc(C(=O)NCC(=O)NCc3ccco3)c3ccccc3c2=O)c(OC)c1	5	-20	-9%	3	-0.8
O=S(=O)(N1CCCCC1)N1CCN(CC(O)COc2ccc3cc(Br)ccc3c2)CC1 (stereo not drawn)	7	-15	12%	22	-0.3
Cc1ccc(C(=O)Oc2cc(N)n(S(=O)(=O)c3ccc(C)cc3)n2)cc1	-5	x	3%	-1	2.2
O=C(COC(=O)/C=C/c1cccc(Br)c1)NCCC1=CCCCC1	45	-27	8%	1	-1.9
COc1cc(CNCc2ccccn2)ccc1OCc1ccccc1Cl	67	-16	61%	7	-2.1

Compound activity deposited in PubChem BioAssay by several laboratories.
